# Screens: PubChem, several laboratories
# Bfl-1 A1 inh: inhibitors of the anti-apoptotic protein A1, read as caspase activation. 330,000 tested, 0.066% active. MEF A1-2A-BIM cells, Caspase-Glo 3/7 luminescence, 3 h; percent of clofoctol response, vehicle zero. AID 2462. caspase activation, % (no concentration beside the values);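 active means over half of replicate activation scores above 10%, or exactly half above 10 with the replicate mean above 10; inconclusive means replicate mean below 10 yet half the replicates above 10; inactive means over half of replicates below 10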;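 further: wells of about 30 µL received 50 nL stock; many hits fall short of the cut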
# RanGTP-Imp inh: inhibitors of RanGTP-importin-beta interaction, primary screen, biochemical, FRET, CFP-Ran, YFP-importin-beta, homogeneous; inhibition, % (test concentration not listed); AID 2216; 300,000 tested, 1.1% active; cell-free CFP-Ran/YFP-importin-beta FRET ratio;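 active means most replicates above 15%; inconclusive means exactly half above 15%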;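 further: 0% = DMSO wells and 100% = Ran loaded with GDP instead of GTP; wells of about 40 µL received 100 nL stock; the first replicate is given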
# Vif TR-FRET: inhibitors of Vif binding to APOBEC3G peptide, primary screen, biochemical, TR-FRET, GST-Vif 1-94, biotin-A3G peptide, dose response retest (AID 1117319). TR-FRET GST-Vif / biotin-A3G peptide binding; higher % means a stronger effect; test concentration not given here; strong numbers were not always called active. one-dose inhibition, %; IC50 in µM for titrated hits. 260,000 tested, 0.57% active;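 active means above the screen mean plus three standard deviations and confirmed in dose response; inconclusive means results disagree or hit not tested in dose response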;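 further: Vif residues 1-94 fused to GST binding biotinylated APOBEC3G peptide 110-148; 0% = full assay without inhibitor and 100% = GST in place of GST-Vif; retest series ran down from 100 µM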
# AF4-AF9 inh: blocks AF4 peptide binding to human AF9 | P42568 | AlphaScreen, biotin-AF4 peptide binding to FLAG-AF9 | inhibition, % at 10 µM | 350,000 tested, 0.47% active | AID 651704;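 active means every replicate reaching a set inhibition limit, whatever the replicate mean, cut at about 25% in these data; inconclusive means mean inhibition reaches that limit but some replicates miss it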;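 further: 0% = plate neutral control median and 100% = total signal loss; the record names both 10 and 1 µM as test concentration; the first replicate is given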
# LANA-H2A inh: blocks KSHV LANA binding to histone H2A/H2B; Q9QR71; cell-free LANA-H2A/H2B peptide, fluorescence polarization; inhibition, % (test concentration not listed); 320,000 tested, 0.6% active; AID 2629; in the data active means inhibition mostly above about 10%, no sharp cut-off; inactive means mostly below about 6.7%;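 further: stock transfer was 7.5 nL into about 10 µL; 0% = median of vehicle wells and 100% = median of positive control wells; one replicate is shown; the record names a cut of 25% in any replicate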
# Target sequence (Q9QR71 whole entry, looked up): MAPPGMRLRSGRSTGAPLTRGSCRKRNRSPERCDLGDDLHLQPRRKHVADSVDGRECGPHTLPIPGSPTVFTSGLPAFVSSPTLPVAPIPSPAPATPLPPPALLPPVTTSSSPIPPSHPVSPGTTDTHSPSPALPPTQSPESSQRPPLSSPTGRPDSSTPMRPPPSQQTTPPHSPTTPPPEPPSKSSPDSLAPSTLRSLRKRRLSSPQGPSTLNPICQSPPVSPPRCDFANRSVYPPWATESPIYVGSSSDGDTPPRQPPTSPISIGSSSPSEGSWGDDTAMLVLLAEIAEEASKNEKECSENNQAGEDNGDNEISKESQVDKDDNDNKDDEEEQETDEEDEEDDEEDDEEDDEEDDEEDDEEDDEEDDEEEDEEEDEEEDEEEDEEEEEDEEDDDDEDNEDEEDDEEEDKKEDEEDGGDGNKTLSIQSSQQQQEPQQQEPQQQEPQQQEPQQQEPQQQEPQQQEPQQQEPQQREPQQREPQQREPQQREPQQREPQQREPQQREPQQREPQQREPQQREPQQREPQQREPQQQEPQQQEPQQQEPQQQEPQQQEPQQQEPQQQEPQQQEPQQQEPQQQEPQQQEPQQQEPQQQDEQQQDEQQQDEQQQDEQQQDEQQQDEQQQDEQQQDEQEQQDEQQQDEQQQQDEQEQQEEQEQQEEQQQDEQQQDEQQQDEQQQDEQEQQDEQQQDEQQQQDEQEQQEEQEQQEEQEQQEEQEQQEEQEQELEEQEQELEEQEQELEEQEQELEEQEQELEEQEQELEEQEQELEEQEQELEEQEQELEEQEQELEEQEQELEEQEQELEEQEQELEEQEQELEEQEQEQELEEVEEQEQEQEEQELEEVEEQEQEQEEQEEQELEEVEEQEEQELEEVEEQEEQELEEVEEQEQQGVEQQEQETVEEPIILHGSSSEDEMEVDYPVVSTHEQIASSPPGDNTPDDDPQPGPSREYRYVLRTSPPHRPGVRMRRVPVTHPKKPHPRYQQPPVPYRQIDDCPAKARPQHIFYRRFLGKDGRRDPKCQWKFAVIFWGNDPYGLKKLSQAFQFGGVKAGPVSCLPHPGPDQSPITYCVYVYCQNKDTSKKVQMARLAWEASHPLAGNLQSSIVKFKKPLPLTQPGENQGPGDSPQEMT
# Beta cell apopt: beta cell apoptosis inhibition. INS-1E cytokine-induced death, ATP luminescence, 48 h; percent of positive-control rescue, neutral wells zero. AID 435005. 300,000 tested, 0.8% active. protection from apoptosis, % (test concentration not listed);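 active means all replicates at 75% or more, or half of them and the mean; inconclusive means half reach 75% but not the mean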;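 further: 0% = cytokine-treated negative control wells and 100% = positive control rescue; higher means more ATP so stronger rescue from cytokine killing; wells of about 40 µL received 100 nL stock; the first replicate is given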
# T cruzi inh: T. cruzi replication inhibition | 300,000 tested, 1.4% active | inhibition, % (concentration not given with the values) | AID 1885 | T. cruzi beta-gal in NIH3T3, luminescence, 90 h;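 active means mean inhibition across valid replicates above about 55%, limit read from the data; inconclusive means mean below that limit but half or more replicates reach it; inactive means mean below it, under half of replicates reach it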;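 further: signal also drops with host cell toxicity which is not excluded here; 0% = plate median of DMSO wells and 100% = zero luminescence signal; higher percent means less beta-gal luminescence so fewer parasites; stock transfer was 50 nL into about 50 µL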
# Calb FLC: C. albicans growth modulation with fluconazole | growth inhibition, % (no concentration beside the values) | 300,000 tested, 0.57% active | C. albicans CaCi-2 (fluconazole-resistant clinical isolate) + fluconazole, Alamar Blue growth, 48 h;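 active means most replicates above 75%; inconclusive means exactly half above 75%; inactive means most below 75%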;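 further: all wells also contain fluconazole at 8 µg/ml as a sub-toxic cotreatment; 0% = median of DMSO wells and 100% = median of geldanamycin control wells; wells of about 8 µL received 7.5 nL stock; the first replicate is given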
# * = called active by the depositor; u = inconclusive; x = no result given; & = joins results of further samples.
SMILES,Bfl-1 A1 inh,RanGTP-Imp inh,Vif TR-FRET,AF4-AF9 inh,LANA-H2A inh,Beta cell apopt,T cruzi inh,Calb FLC
CCC(C)(O)c1[nH]c2ccc(C(=O)OC)cc2c1C (stereo not drawn),0.8,-3.3,x,1.7,-2.2,-3,1,-17
O=C(NC1CCCN(c2ccc(C(F)(F)F)cn2)C1)c1ccnc(Cl)c1 (stereo not drawn),-0.6,4.8,x,-0.8,-3.7,5,0,-4
Nc1nc(NCc2ccco2)nc(N2CCCC2)c1[N+](=O)[O-],-0.7,0.2,x,-2.3,0.5,-1,0,4
CCCNC(=O)CCn1c(-c2ccc(C)cc2)cc(C(=O)OCC)c1C,1.1,6.7,-7%,x,-0.4,x,16,-10
Cc1ccc(S(=O)(=O)NCC(=O)N(CC2CCCO2)C(C(=O)NC2CCCCC2)C(C)C)cc1 (stereo not drawn),1.5,-4.9,-2%,1.3,0.4,-2,3,-14
Cc1cc(-c2ccc(S(=O)(=O)N(C)Cc3ccccc3)cc2)on1,-0.9,1.4,10%,0.8,-6.4,0,14,-12
CCSc1nnc(-c2ccccc2NC(=O)CC)c(=O)[nH]1,0.7,-0.6,24%,x,-1.5,-4,6,-1
CCC(CO)NCc1sccc1C (stereo not drawn),-1.1,3.9,0%,0.8,6.4,-2,-8,-13
Cc1cc2c(cc1C)N(C(=O)CSc1nncn1C)C(C)(C)c1ssc(=S)c1-2,0.0,-0.5,-7%,u,0.5,3,15,28
COc1ccc(NC(=O)C(=O)NCC(=O)Nc2cccc(C(F)(F)F)c2)cc1,0.7,1.4,10%,-2.9,1.7,1,-8,0
Cc1ccc(S(=O)(=O)N2CCN(C(=O)c3ccc([N+](=O)[O-])cc3)C2)cc1,0.9,2.4,-14%,-0.8,1.4,-4,5,-12
O=C(Nc1ccccc1N1CCCCC1)c1cc(S(=O)(=O)N2CCOCC2)ccc1Cl,0.2,2.9,-5%,7.0,-1.3,5,44,1
COc1ccc(/C=C(\C#N)C(=O)OCC(=O)Nc2c(C)cccc2C)cc1,0.2,-9.5,x,2.2,-7.5,2,-4,-2
Cc1cccc(N2C(=O)c3cccc4c(N5CCCCC5)c([N+](=O)[O-])cc(c34)C2=O)c1C,0.5,4.9,-5%,x,-0.5,x,-29,0
COc1ccc(C(=O)c2ccccc2Cl)cc1OC,0.2,0.3,-8%,-2.2,-1.8,-4,12,5
Cc1ccc2[nH]c(=O)c(CN(c3cccc(C)c3C)S(=O)(=O)c3ccccc3)cc2c1,-0.8,-1.6,x,x,0.7,13,-8,8
CCn1c(=O)[nH]c(=O)c2c(N)c(C(=O)c3cc(F)ccc3F)sc21,1.8,0.1,0%,1.8,3.9,4,-8,3
CC12CCC(C(=O)NNC(=O)c3ccc(F)cc3)(OC1=O)C2(C)C (stereo not drawn),u,1.3,x,-3.8,-4.2,0,-7,8
COC(=O)Cn1c(C)c(/C=C/c2cc[n+](C)cc2)c2ccccc21,-0.2,-140,x,-1.1,-253,0,11,-2
CCCOC(=O)C1NC(=O)N2C(C(=O)OCCC)C(C)(C)S[C@H]12 (stereo partly drawn),1.1,-3.8,x,-1.8,4.8,-6,1,0
COc1ccc(C(=O)Nc2ccc(NS(=O)(=O)c3ccccc3)cc2)cc1OC,-0.5,u,6%,-11,3.3,-4,3,-9
COC(=O)c1ccc(NC(=O)CSc2nncn2C)cc1,0.6,2.0,-3%,x,-2.4,-1,-11,2
Cc1nnc2c(-c3ccccc3)nc3ccccc3n12,-1.3,1.0,0%,x,0.5,1,-11,30
CCN(CC(=O)NCc1cccs1)C(=O)COc1cccc(C(F)(F)F)c1,0.9,x,-7%,0.0,-1.0,-3,x,x
Cc1ccc(C)c2[nH]c(=O)c(CCNC(=O)Cc3cccs3)cc12,-0.4,4.5,-42%,0.8,2.1,1,-1,-4
# More records follow:
SMILES,Bfl-1 A1 inh,RanGTP-Imp inh,Vif TR-FRET,AF4-AF9 inh,LANA-H2A inh,Beta cell apopt,T cruzi inh,Calb FLC
CCOP(=O)(OCC)C(Nc1ccc([N+](=O)[O-])cc1)c1ccc(Cl)cc1 (stereo not drawn),1.3,4.7,-1%,7.5,-2.0,-1,0,u
CC1CN(C(=O)c2cccs2)CC(C)O1 (stereo not drawn),0.2,-10,-3%,-2.5,3.9,-5,-2,4
Cc1nn(-c2ccccc2)c(Cl)c1/C=N/NC(=O)OC(C)(C)C,-0.3,4.0,3%,2.9,2.9,3,16,-2
COc1ccc(OCC(=O)Nc2ccc(S(=O)(=O)Nc3cc(C)nc(C)n3)cc2)cc1,-1.2,-0.9,5%&4%,x,1.3,-5,-19,-2
O=C(NCCCCc1ccccc1)c1ccc(Br)o1,-0.8,0.2,3%,x,4.2,0,20,-20
CCCCNC(=O)c1cc(C)nn1-c1ccccc1,0.1,-1.4,u,10,1.9,0,-8,-11
O=C(NC1=C(Nc2ccc(F)cc2)C(=O)c2ccccc2C1=O)c1ccc(Cl)cc1,0.0,-0.4,x,x,-1.6,87*,-4,0
Cc1nc2ccccc2c2oc(C(=O)N3CC(C)CC(C)C3)cc12 (stereo not drawn),0.5,-0.2,-4%,-1.1,-1.6,10,16,-15
CC1CC1C(=O)OCC(=O)NNC(=O)c1ccc([N+](=O)[O-])cc1 (stereo not drawn),0.8,x,21%,-8.3,-0.3,-6,x,x
COc1cc(CC(NC(C)=O)C(=O)NC2CCN(C(=O)C3CC3)CC2)cc(OC)c1 (stereo not drawn),2.7,-1.1,7%,-0.5,-6.0,x,-3,-8
Cc1cc(S(=O)(=O)N2CCc3ccccc3C2)ccc1F,0.4,0.6,x,0.0,-1.7,1,5,-11
CCOC(=O)c1sc(NC(=O)Cc2c(F)cccc2Cl)nc1C,-0.6,3.8,28%,0.0,-7.3,9,29,3
CC(C)[C@H]1CN=C2N(C[C@H](C)NC(=O)CCC3CCCCC3)[C@H](Cc3ccc(O)cc3)CN21,-0.4,-4.1,x,7.0,-2.0,2,-11,-22
COc1cc(NC(=O)N2c3ccccc3Sc3ccccc32)c(C(=O)O)cc1OC,1.5,0.5,x,9.3,-8.4,3,22,-1
CC(C)CC(=O)N1CCN(CC2CC=CCC2)CC1 (stereo not drawn),0.7,-1.2,2%,x,0.1,-9,24,-4
CN(C(=O)CSc1nc(O)cc(=O)n1C1CCCC1)c1ccccc1,0.4,-3.7,x,-4.1,1.0,-7,-3,-1
O=C(NCc1ccccc1)N1CCC(n2cnc3cc(F)ccc32)CC1,1.3,4.6,-1%,x,1.9,-2,-15,-3
Cc1ccc(OCC(=O)N/N=C\c2ccco2)c(C)c1,0.0,-0.6,-4%,x,5.4,2,-6,-5
COc1cccc2c1Oc1ncccc1N(C(=O)CCC(=O)NCc1ccccc1)C2,-0.4,5.0,x,2.4,-4.3,-12,5,40
CCOc1ccc(NC(=O)N2CCC(n3nnc4ccccc43)CC2)cc1,-0.3,0.3,x,4.5,-3.0,0,-3,-11
Cc1ccc(C(C)NC(=O)c2cccnc2)cc1 (stereo not drawn),0.1,23,x,-1.7,-0.2,x,-5,-3
O=C(c1ccc(-c2ccc([N+](=O)[O-])cc2)o1)N1CCCC(C(F)(F)F)C1 (stereo not drawn),0.2,u,22%,-9.3,4.7,0,22,9
COc1ccc(NC(=O)C2CCC(CNC(=O)[C@@H]3Cc4ccccc4CN3)CC2)cc1 (stereo partly drawn),-0.3,-4.0,x,-2.5,-0.1,-2,6,x
CN(CCO)c1cc(NCCCN2CCC(Cc3ccccc3)CC2)c2nonc2c1[N+](=O)[O-],1.1,8.5,9%,5.1,-0.7,12,65*,3
O=c1oc(-c2cccs2)nc2sc3c(c12)CCC3,-7.3,-3.1,8%,x,2.4,3,-13,-11
# The listing continues:
SMILES,Bfl-1 A1 inh,RanGTP-Imp inh,Vif TR-FRET,AF4-AF9 inh,LANA-H2A inh,Beta cell apopt,T cruzi inh,Calb FLC
CCNS(=O)(=O)c1ccc(CCC(=O)NCc2ccncc2)cc1,2.0,2.7,-2%,-9.6,2.9,-1,-17,19
CCC(O)c1nc2ccccc2n1CCc1ccccc1 (stereo not drawn),0.0,3.3,-4%,1.1,4.1,-6,-4,2
Cc1ccc(S(=O)(=O)N2C(=O)CCC2C(=O)Nn2cnnc2)cc1 (stereo not drawn),-0.6,7.7,26%,x,2.8,-4,-9,4
CCCN1CCN(S(=O)(=O)c2ccc3c(c2)NC(=O)C(C)C(=O)N3)CC1 (stereo not drawn),0.5,-6.4,x,3.1,-3.4,9,-3,-9
COc1ccc(COc2cccc(C=O)c2)cc1,-1.0,1.4,x,4.0,0.8,-4,-16,5
CC(C)NC(=O)NC(=O)CSc1nnc(-c2ccccc2F)n1N,0.3,-0.7,1%,-3.0,0.3,2,27,-6
COc1ccc(N2C(=O)C3C(c4ccc(OC)cc4O)NC(Cc4ccccc4)(C(=O)O)C3C2=O)cc1 (stereo not drawn),0.4,x,10%,-1.4,0.0,-3,-19,-11
CC(Oc1ccccc1)C(=O)NC1CC(C)(C)NC(C)(C)C1 (stereo not drawn),0.1,u,-5%,x,17*,-6,-9,7
O=C(OCC(=O)N1CCCCCC1)c1ccc(Cl)c(S(=O)(=O)N2CCCC2)c1,-0.5,-3.3,5%,1.4,-12,-4,16,-11
Cc1nnsc1S(=O)(=O)Cc1ccccc1Cl,-0.3,5.6,10%,x,0.6,-5,-7,21
O=C(CSc1nnc(NC(=O)c2ccc(F)cc2F)s1)NC1CC1,0.2,4.7,x,-1.5,-5.7,6,-4,3
Cc1cccc(C(CC(=O)NCc2ccco2)c2ccccc2)c1O (stereo not drawn),0.4,4.4,-9%,4.5,-0.6,-4,-9,18
CN(CC(=O)NCc1ccco1)CC(=O)Nc1c(Cl)cccc1Cl,0.8,x,0%,-0.6,-5.2,-4,x,x
O=c1[nH]c(CSc2nnnn2-c2ccccc2)nc2ccccc12,-0.2,4.1,-3%,-0.7,4.0,x,-8,-13
CC1(C)CC(=O)C=C(NCc2cccnc2)C1,1.3,4.0,-1%,x,2.6,4,1,-2
O=C(CSc1cn[nH]n1)Nc1cccc(C(=O)O)c1,-0.6,1.4,x,0.4,2.0,-11,1,-5
O=C(O)c1ccc2c(c1)C(c1ccccc1)OC2=O (stereo not drawn),1.2,-5.0,71%,x,4.1,-3,-8,-8
Cc1noc(C)c1NC(=O)Nc1ccc2c(c1)C(=O)N([C@H](C)CO)C[C@H](C)[C@H](CN(C)C)O2,0.4,x,x,-1.8&3.0,46*,-3,x,x
COCCn1c(SCC(=O)NC(=O)NC(C)(C)C)nc2ccccc21,0.9,-2.2,3%,x,1.8,-4,5,-18
CN(C)CCn1cnc2c(c1=N)C(c1ccccc1)c1ccc3ccccc3c1O2 (stereo not drawn),-0.2,u,-8%,20,0.5,21,36,67
O=S(=O)(c1ccc(Cl)cc1)N1CCN(C(=S)NCC2CCCO2)CC1 (stereo not drawn),-0.4,1.2,x,-1.9,-0.2,-11,13,1
CC(=O)Oc1ccc(/C=N/NS(=O)(=O)c2ccccc2)cc1,-0.2,2.4,-10%,-20,-1.8,x,-7,-2
